Compound activity deposited in PubChem BioAssay by National Center for Advancing Translational Sciences (NCATS).
VDR inhibitor: Inhibitors of the vitamin D receptor (VDR): qHTS | Vitamin D3 receptor (Homo sapiens), P11473 | Potency, µM, without a hit: max response, negative = inhibition, usual class: inhibitors | AID 504847, 2011 | 400,000 tested, 0.93% active | VDR-SRC2-3 peptide fluorescence polarization, 2 h; active = well fitted inhibition curve with a large enough effect; inconclusive = small, poorly fitted or top-dose-only effect, or another doubt; inactive = no such curve, though single readings can be large or run the other way; note: series mostly up to about 120 µM
Target sequence (P11473 whole entry, looked up): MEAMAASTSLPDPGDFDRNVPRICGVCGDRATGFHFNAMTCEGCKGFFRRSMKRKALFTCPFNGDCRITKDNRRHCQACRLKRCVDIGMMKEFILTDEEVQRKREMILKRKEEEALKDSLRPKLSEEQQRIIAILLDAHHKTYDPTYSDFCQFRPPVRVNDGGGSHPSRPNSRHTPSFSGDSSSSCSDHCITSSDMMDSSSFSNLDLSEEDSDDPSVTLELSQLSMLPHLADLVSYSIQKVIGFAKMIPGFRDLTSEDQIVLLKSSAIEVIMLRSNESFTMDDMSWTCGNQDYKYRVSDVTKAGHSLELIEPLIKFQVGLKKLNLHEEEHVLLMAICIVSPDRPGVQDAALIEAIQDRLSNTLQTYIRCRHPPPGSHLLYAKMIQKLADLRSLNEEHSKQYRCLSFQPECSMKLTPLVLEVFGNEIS
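Fluorescence polarization assay of small-molecule disruption of VDR binding to coregulator peptide SRC2-3. Compounds and controls pin-transferred, then read after 2 h incubation at ambient room temperature.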
Starred values were filed as active, the others as inactive; & = joins results of further samples. % is set by controls: 0 for no effect and ±100 for the full control effect; potency is the fitted concentration of half-maximal effect.

O=C1CC2(CCCC2)CC(=O)N1CCCCN1CCN(c2ncccn2)CC1 was read as VDR inhibitor -3.0%&-11.5%&2.1%.
Screening Cc1ccc(OC(=O)Cn2c(C(F)(F)F)nc3ccccc32)cc1 returned VDR inhibitor 5.8%.
For COc1ccc(/C=N/NC(=O)c2cccc(Br)c2)cc1CN1CCOCC1 the results were VDR inhibitor 1.0%.
For O=[N+]([O-])c1ccc(/C=[N+](\[O-])[C@@H]2CCCC[C@@H]2/[N+]([O-])=C/c2ccc([N+](=O)[O-])o2)o1 the results were VDR inhibitor -10.6%.
Screening COc1ccccc1CNc1ncncc1-c1ccc2c(c1)OCO2 returned VDR inhibitor inconclusive.
For CCCN(CCC)S(=O)(=O)c1ccc(C(=O)Nc2nnc(-c3cccc(OC)c3)o2)cc1 the results were VDR inhibitor -3.3%.
`CCOc1ccccc1NC(=S)N1CCC(NC(=O)C(C)(C)C)CC1` gave VDR inhibitor 2.9%.
`COc1ccc(Br)cc1CNC(=O)Cc1cccs1` gave VDR inhibitor -0.7%.
For COc1cc(S(=O)(=O)N2CCN(C(=O)c3ccccc3)CC2)c(OC)cc1Br the results were VDR inhibitor -12.3%.
CCOC(=O)N1CCN(CC(O)COc2ccc(-c3ccccc3)cc2)CC1 (centres undefined) was read as VDR inhibitor 15.3%.
Screening Cc1ccc(-n2nc3c(N4CCC(C(=O)NC(C)c5ccccc5)CC4)nnc(C)c3c2C)cc1 (centres undefined) returned VDR inhibitor 3.6%.
Screening O=c1[nH]cnc(CN2CCCCC2)c1O returned VDR inhibitor -11.8%.
For COc1ccccc1CNS(=O)(=O)c1ccc2c(c1)CC(C)N2C(=O)C1CC1 (centres undefined) the results were VDR inhibitor 5.6%.
COCC(=O)Nc1nc(-c2ccc([N+](=O)[O-])cc2)cs1 was read as VDR inhibitor -0.8%.
Nc1c(C(=O)NCc2ccco2)c2nc3ccccc3nc2n1CCc1ccc(F)cc1 was read as VDR inhibitor -13.5%.
For Cc1ccc(C(=O)NCC(c2ccco2)N2CCCCC2)s1 (centres undefined) the results were VDR inhibitor -6.5%.
For COCCCn1cc(C(=O)c2cc(OC)ccc2OCC(=O)Nc2cc(C)on2)cc(C#N)c1=O the results were VDR inhibitor 2.6%.
Screening COc1ccccc1CNC(=O)C12CC3CC(CC(C3)C1)C2 returned VDR inhibitor -18.7%.
Screening O=S(=O)(NCCN1CCOCC1)c1ccc2ccccc2c1 returned VDR inhibitor 11.5%.
`Cc1cc(C)nc(NC(=O)C(C)C)n1` gave VDR inhibitor 12.2%.
O=C(O)[C@@H](O)[C@@H](O)[C@H](O)C(=O)CO was read as VDR inhibitor 10.9%.
Screening COc1ccc2ccccc2c1/C=N\n1c(C)cc(C)c(C(N)=O)c1=O returned VDR inhibitor -5.1%.
Screening COc1cc(C(C)=O)ccc1OCCCN1CCC(Cc2ccccc2)CC1 returned VDR inhibitor 0.2%.
For Cc1ccc(CCNC(=O)c2cc(S(=O)(=O)N3CCCCC3)c[nH]2)cc1 the results were VDR inhibitor -20.7%.
For CCC(CO)n1c(=S)[nH]c2cc(OC)c(OC)cc2c1=O (centres undefined) the results were VDR inhibitor -1.9%.
For Cc1ccc(-n2nc(C)c3c(C)cc(=O)n(CC(=O)NCc4ccc(OC(C)C)cc4)c32)cc1 the results were VDR inhibitor 4.1%.
`O=[N+]([O-])c1cc(/C=N/N2CCN(c3ccccc3)CC2)ccc1Cl` gave VDR inhibitor -13.1%.
`CCOC(=O)N/N=C(\CCC(=O)O)c1cccs1` gave VDR inhibitor 9.9%.
Screening CCc1noc(C)c1C(=O)NNC(=O)COc1ccc(Br)cc1 returned VDR inhibitor -8.7%.
For O=C(Nc1ccc(Cl)c(S(=O)(=O)N2CCOCC2)c1)c1ccc2c(c1)OCO2 the results were VDR inhibitor -6.6%.
Screening Cc1ccc(N2C(=O)SC(N(CC(=O)O)c3ccc(C)cc3)C2=O)cc1 (centres undefined) returned VDR inhibitor 3.5%.
For Cc1ccc(NC(=O)C2CCCN(S(=O)(=O)c3c(C)noc3C)C2)c(C)c1 (centres undefined) the results were VDR inhibitor -5.8%.
For Cc1ccc2cc(CCNC(=O)C3CCCC3)c(=O)[nH]c2c1 the results were VDR inhibitor 7.6%.
`COc1ccc(NC(=O)CNC(=O)Cn2cnc3sc4c(c3c2=O)CCCC4)cc1OC` gave VDR inhibitor 8.3%.
For Cc1nn(CCC(=O)NCc2cccc(Br)c2)c(=O)c2nn(-c3ccccc3)c(C)c12 the results were VDR inhibitor -6.2%.
Screening Cc1ccc(CNC(=O)c2ccc(N3CCC4(CC3)CC(c3ccccc3)=NO4)c(NC(=O)c3cccc(C)c3)c2)cc1 returned VDR inhibitor -1.5%.
COc1ccc(CNC(=O)c2cc3c(=O)n4cccc(C)c4nc3n(CC3CCCO3)c2=N)cc1 (centres undefined) was read as VDR inhibitor -11.5%.
`Cc1ccc(S(=O)(=O)N2CC=C(C(=O)NC3CC3)CC2)cc1` gave VDR inhibitor -14.8%.
Cc1ccc(OCC(=O)OCC(=O)Nc2ccc3c(c2)OCO3)cc1C was read as VDR inhibitor -6.1%.
`COCCNC(=O)C1CCC(CNS(=O)(=O)c2cccc3nsnc23)CC1` (centres undefined) gave VDR inhibitor -14.0%.

Arranged by heavy-atom count (highest first): part of the list above
COc1ccc(CNC(=O)c2cc3c(=O)n4cccc(C)c4nc3n(CC3CCCO3)c2=N)cc1 (centres undefined) was read as VDR inhibitor -11.5%.
`COc1ccc(NC(=O)CNC(=O)Cn2cnc3sc4c(c3c2=O)CCCC4)cc1OC` gave VDR inhibitor 8.3%.
For Cc1nn(CCC(=O)NCc2cccc(Br)c2)c(=O)c2nn(-c3ccccc3)c(C)c12 the results were VDR inhibitor -6.2%.
`COCCNC(=O)C1CCC(CNS(=O)(=O)c2cccc3nsnc23)CC1` (centres undefined) gave VDR inhibitor -14.0%.
Cc1ccc(OCC(=O)OCC(=O)Nc2ccc3c(c2)OCO3)cc1C was read as VDR inhibitor -6.1%.
For Cc1ccc2cc(CCNC(=O)C3CCCC3)c(=O)[nH]c2c1 the results were VDR inhibitor 7.6%.

Next section
COC(=O)C1=CN(c2cccc(C(F)(F)F)c2)C=C(C(=O)OC)C1c1ccc(O)c(OC)c1 was read as VDR inhibitor -9.0%.
`CCc1ccc(NC(=O)CN2CCCN(S(=O)(=O)c3ccc(F)cc3)CC2)cc1` gave VDR inhibitor -5.0%.
`Cc1ccc(N2CC(C(=O)OCC(=O)Nc3cc(C)on3)CC2=O)c(C)c1` (centres undefined) gave VDR inhibitor 8.2%.
COc1ccc(C2CC(=O)c3cnc(Nc4cc(C)cc(C)c4)nc3C2)cc1 (centres undefined) was read as VDR inhibitor -7.2%.
For COc1cccc(NS(=O)(=O)c2ccc3c(c2)N(C)C(=O)CC(=O)N3C)c1 the results were VDR inhibitor 14.8%.
For CCN(CC)S(=O)(=O)N1CCC(C(=O)NCc2ccc(C)cc2)CC1 the results were VDR inhibitor -12.8%.
CCN(CC)CCN(C)C(=O)CCc1nnc(-c2ccc(C)s2)o1 was read as VDR inhibitor 16.3%.
`O=C1CCC(C(=O)NC2(C(=O)NC3CCCCC3)CCCCC2)N1` (centres undefined) gave VDR inhibitor 13.5%.
Screening O=C(Nc1ccc(N2CCOCC2)nc1)c1cccs1 returned VDR inhibitor -21.9%.
For Cc1ccc2[nH]cc(C(=O)NCc3cccs3)c(=O)c2c1 the results were VDR inhibitor -9.4%.
CCc1c(C)[nH]c2c1C(=O)C(CN1CCOCC1)CC2 (centres undefined) was read as VDR inhibitor -14.0%&-13.0%.
COc1cc2c(cc1OC)CN(Cc1cc(=O)oc3cc(C)c(C)cc13)CC2 was read as VDR inhibitor -12.0%.
Cc1cc(NC(=O)CCS(=O)(=O)c2ccc3c(c2)NC(=O)C(C)S3)ccc1Br (centres undefined) was read as VDR inhibitor 3.9%.
COc1ccc([N+](=O)[O-])cc1NS(=O)(=O)c1ccccc1 was read as VDR inhibitor -3.6%.
`CC1CCN(C(=O)CSc2nc(-c3ccc(C(C)C)cc3)no2)CC1` gave VDR inhibitor 4.8%.
FC(F)(F)c1cccc(-c2cc3ccccc3nc2N2CCCC2)c1 was read as VDR inhibitor -8.4%.
Screening Cc1nc2nc(C)c(CCC(=O)NCc3ccc4c(c3)OCO4)c(C)n2n1 returned VDR inhibitor 8.1%.
Screening COc1ccc(Cc2nc3ccc(C(=O)NCc4cc(C)no4)cc3o2)cc1OC returned VDR inhibitor -17.3%.
Cc1ccc(C(=O)Nc2nnc(S(=O)(=O)N3CCOCC3)s2)cc1 was read as VDR inhibitor -12.0%&8.9%.
CCc1ccc(S(=O)(=O)Nc2ccc(-c3ccc(N4CCCCCC4)nn3)cc2)cc1 was read as VDR inhibitor 8.8%.

The last 2 records of the part before are carried over, then new ones follow.
Cc1ccc(C(=O)Nc2nnc(S(=O)(=O)N3CCOCC3)s2)cc1 was read as VDR inhibitor -12.0%&8.9%.
CCc1ccc(S(=O)(=O)Nc2ccc(-c3ccc(N4CCCCCC4)nn3)cc2)cc1 was read as VDR inhibitor 8.8%.
`CCC(Oc1ccccc1)C(=O)NCc1ccc(S(N)(=O)=O)cc1` (centres undefined) gave VDR inhibitor -4.4%.
Screening O=C(CSc1nnc2ccc(-c3ccco3)nn12)Nc1ccccc1F returned VDR inhibitor -21.0%.
CCN1C(=O)[C@H]2[C@@H](c3ccc(-c4ccc(F)cc4)cc3)N3CCCC[C@@]3(C(=O)OC)[C@H]2C1=O was read as VDR inhibitor 3.7%.
`Cc1ccc(C)c(S(=O)(=O)N2CCN(C(=O)Cn3c(=O)cnc4ccccc43)CC2)c1` gave VDR inhibitor -19.4%.
`COc1ccc(NC(=O)CSc2nnc(NC(=O)C3CC3)s2)cc1OC` gave VDR inhibitor -3.6%.
Screening CCOC(=O)c1sc(=NC(=O)c2ccc(Cl)s2)n(C)c1C returned VDR inhibitor -8.1%.
For O=C(CSc1cn[nH]n1)Nc1ccc(Cl)cc1Cl the results were VDR inhibitor -15.4%.
Screening O=C(NCc1ccco1)/C(=C/C=C\c1ccccc1)NC(=O)c1ccc(Br)o1 returned VDR inhibitor -2.7%.
Screening CCN(CC(=O)Nc1ccc(OC)cc1)CC(=O)Nc1cccc(C#N)c1 returned VDR inhibitor 10.7%.
Screening COc1ccc(NC(=O)C2CC(=O)OC2(C)C)cc1 (centres undefined) returned VDR inhibitor -5.5%.
Screening Cc1ccc(Cn2c(=O)n(Cc3nc(-c4ccccc4)no3)c(=O)c3cc4c(cc32)OCO4)cc1 returned VDR inhibitor -5.1%.
Screening CCN(CC(=O)NCc1cccs1)C(=O)c1cccc(S(=O)(=O)Nc2cccc(C)c2)c1 returned VDR inhibitor -0.2%.
`COc1ccccc1C(=O)NCCCNc1ccc([N+](=O)[O-])cc1` gave VDR inhibitor 1.1%.
`COc1ccccc1N(CC(=O)NCCSC(C)(C)C)S(C)(=O)=O` gave VDR inhibitor -4.8%.
`CCC(=O)N1CCc2cc(Br)cc(S(=O)(=O)CCC(=O)NCc3cccc(OC)c3)c21` gave VDR inhibitor 22.9%.
`COc1cc(/C=C/C(=O)OCC(=O)c2ccc3c(c2)NC(=O)CO3)ccc1OC(F)F` gave VDR inhibitor inconclusive.
`CSc1cccc(NC(=O)CN(C)S(=O)(=O)c2ccccc2)c1` gave VDR inhibitor -7.6%.
For COC(=O)N[C@@H](c1cccc(F)c1)[C@@H](C)[N+](=O)[O-] the results were VDR inhibitor 4.8%.
`Cc1ccc(-c2nnc(Nc3cccc(C(F)(F)F)c3)c3ccccc23)cc1S(=O)(=O)N1CCOCC1` gave VDR inhibitor 2.4%.
For CCc1ccccc1NC(=S)N(CCN1CCOCC1)C1CCN(C(C)=O)CC1 the results were VDR inhibitor -9.0%.

Next section (3 carried over from the part before).
For COC(=O)N[C@@H](c1cccc(F)c1)[C@@H](C)[N+](=O)[O-] the results were VDR inhibitor 4.8%.
`Cc1ccc(-c2nnc(Nc3cccc(C(F)(F)F)c3)c3ccccc23)cc1S(=O)(=O)N1CCOCC1` gave VDR inhibitor 2.4%.
For CCc1ccccc1NC(=S)N(CCN1CCOCC1)C1CCN(C(C)=O)CC1 the results were VDR inhibitor -9.0%.
For COc1ccc(C(Nc2cccc([N+](=O)[O-])c2)P(=O)(OC(C)C)OC(C)C)cc1 (centres undefined) the results were VDR inhibitor -8.1%.
For Cc1c(Cc2ccccc2)c(=O)oc2c(C)c(OCC(=O)NCC3CCC(C(=O)O)CC3)ccc12 (centres undefined) the results were VDR inhibitor -11.8%.
`CC(Cc1ccccc1)NC(=O)CCCN1C(=O)c2ccccc2C1=O` (centres undefined) gave VDR inhibitor -3.2%.
For COc1cc(C(=O)N2CCN(S(=O)(=O)c3cc(C)ccc3C)CC2)ccc1OCC(=O)N1CCOCC1 the results were VDR inhibitor 12.4%.
CSC(=NNC(=O)c1ccccc1O)SC was read as VDR inhibitor -10.3%.
CC(=O)Nc1cccc(NC(=O)c2ccccc2OCc2c(C)noc2C)c1 was read as VDR inhibitor 8.0%.
For COc1ccc(NC(=O)CSc2nnnn2C2CC3C=CC2C3)cc1 (centres undefined) the results were VDR inhibitor -8.0%.
Screening CC(C)(C)C(=O)COC(=O)CNC(=O)c1ccc(Oc2ccccc2)cc1 returned VDR inhibitor 18.1%.
`COc1ccc(C(=O)n2cnnc2N)cc1` gave VDR inhibitor -18.1%.
Screening CCCCN(C(=O)CSc1nnc(Nc2ccccc2)s1)c1c(N)n(CCC)c(=O)[nH]c1=O returned VDR inhibitor -0.3%.
For CCOC(=O)C(NC(C)=O)(OCc1ccc(F)cc1)C(F)(F)F (centres undefined) the results were VDR inhibitor -16.1%.
`O=C(C1CCC1)N1CCc2cc(S(=O)(=O)NCCCN3CCCCC3)ccc21` gave VDR inhibitor 9.7%.
O=C(NCCc1ccc(F)cc1)Nc1ccccc1Cl was read as VDR inhibitor 11.1%.
Cc1c(C#N)c(SCC(N)=O)nc2c1CCCC2 was read as VDR inhibitor 9.9%.
Screening CCOc1ccc(NC(=O)CN(C)C(=O)CN2C(=O)c3ccc([N+](=O)[O-])cc3C2=O)cc1OCC returned VDR inhibitor -1.3%.
`CCn1c(=O)cc(SCC(=O)Nc2ccc(C)c(F)c2)c2ccccc21` gave VDR inhibitor 2.5%.

This is a subset; the hit share may differ from the screen's.
